Screens (PubChem)
VDR inhibitor: blocks the human vitamin D receptor; VDR-SRC2-3 peptide fluorescence polarization, 2 h; Potency, µM, for inactives: max response, negative = inhibition, actives largely listed as inhibitors; actives 0.93% (n = 400,000); P11473; active = well fitted inhibition curve with a large enough effect; inconclusive = small, poorly fitted or top-dose-only effect, or another doubt; inactive = no such curve, though single readings can be large or run the other way; also: series mostly up to about 120 µM
Target sequence (P11473 whole entry, looked up): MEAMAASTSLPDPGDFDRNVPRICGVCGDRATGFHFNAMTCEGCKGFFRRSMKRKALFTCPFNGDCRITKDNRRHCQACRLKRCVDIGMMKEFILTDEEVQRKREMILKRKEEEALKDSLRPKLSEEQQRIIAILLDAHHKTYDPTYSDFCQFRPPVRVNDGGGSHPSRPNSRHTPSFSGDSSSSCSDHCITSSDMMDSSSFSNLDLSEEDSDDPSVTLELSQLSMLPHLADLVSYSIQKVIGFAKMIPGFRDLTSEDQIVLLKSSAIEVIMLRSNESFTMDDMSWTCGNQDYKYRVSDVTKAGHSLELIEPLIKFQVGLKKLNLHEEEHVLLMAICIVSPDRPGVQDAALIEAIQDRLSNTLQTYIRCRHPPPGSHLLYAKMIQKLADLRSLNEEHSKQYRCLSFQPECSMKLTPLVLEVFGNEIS
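Measured by FP: displacement of SRC2-3 coactivator peptide from VDR by library compounds, following a two-hour ambient incubation.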
* marks the source's active call; other numbers are inactive results; ? = inconclusive; & = joins results of further samples. % is scaled to controls: 0 for no effect and ±100 for the full control effect; potency is read from the fitted curve at half-maximal effect. Some of the compounds tested; count on the stated rates, not on these rows.

SMILES	VDR inhibitor
COc1cccc2cc(C(=O)NCc3ccc(C)cc3)c(=N)oc12	-6%
O=S(=O)(CCN1CCN(c2ccccn2)CC1)c1ccc(Cl)cc1Cl	-8%
CCc1ccc(NC(=O)NC(C)c2ccc3c(c2)OCO3)cc1 (configuration not stated)	-10%
CS(=O)(=O)N(CC(=O)N1CCCCC1)c1ccc(Cl)c(C(F)(F)F)c1	-10%
O=C(c1ccc(-c2ccc(Cl)cc2)o1)N1CCN(S(=O)(=O)c2cccs2)CC1	-26%
Fc1ccc(/C=N/n2c(-c3cccs3)n[nH]c2=S)cc1	-16%
CCOC(=O)C1NN=C(C(=O)c2ccccc2)C1c1ccc(Cl)cc1 (configuration not stated)	-24%
O=C(CNC(=O)C(c1ccccc1)c1ccccc1)N/N=C\c1cccc(O)c1	-1%
Clc1nssc1=Nc1ccccc1	45µM*
Cc1ccc2c(c1)c(C)c(C)n2CC(O)Cn1nc(C)c(Br)c1C (configuration not stated)	-21%
CSCCC(NC(=O)c1ccccc1)C(=O)N1CCN(Cc2ccc(Cl)cc2)CC1 (configuration not stated)	2%
Cn1c2c(c(=O)c3ccccc31)C[C@@H](O)C(C)(C)O2	1%
Cc1ccc(-c2ccccc2NC(=O)CS(=O)CC(=O)Nc2ccc(C)c(Cl)c2)o1 (configuration not stated)	45µM*
COc1ccc2ccccc2c1CN(C)Cc1ccccc1	-9%
CCc1ccccc1NC(=O)c1ccc(S(=O)(=O)NCC2CCCO2)cc1 (configuration not stated)	2%
CCOC(=O)C1CCN(CC(O)COc2ccc(C(C)(C)CC)cc2)CC1 (configuration not stated)	-18%
O=C(Nc1cccc(Cl)c1Cl)c1ccccc1OCC(=O)N1CCOCC1	0%
Cc1ccc2c(c1)[C@@H]1CN(C)CC[C@@H]1N2S(=O)(=O)c1ccc([N+](=O)[O-])cc1	0%
CCOc1cc(C(N)=O)cc(OCC)c1OCC	-5%
Cc1ccc(NC(=O)CCc2c(C)[nH]c(=O)c(C#N)c2C)cc1	16%
Cc1ccc(S(=O)(=O)N2CCN(C(C)C(=O)NCC(C)c3ccccc3)CC2)cc1 (configuration not stated)	4%
O=C(NNc1nc2cc3c(cc2s1)OCCO3)c1ccccc1	-9%
COc1ccc(NC(=O)COC(=O)CCc2nc3ccccc3c(=O)[nH]2)cc1Cl	6%
O=C(COc1ccc(Cl)cc1Cl)NN=C1CCCCC1	-22%
CCCCOc1cccc(C(=O)N(Cc2ccc(N(C)C)cc2)C2CCS(=O)(=O)C2)c1 (configuration not stated)	-4%

Further records.
SMILES	VDR inhibitor
O=C(/C=C/c1ccccc1)NC(NC(=S)Nc1ccc(C(=O)O)cc1)C(Cl)(Cl)Cl (configuration not stated)	?
Cc1ccc(C(=O)N/N=C/c2ccc(-c3ccccc3[N+](=O)[O-])o2)cn1	?
CCC(=O)Nc1nc2ccccc2n1Cc1ccc(C)cc1	-6%
CCC(C(=O)NC(C)(C)C)N(Cc1ccc(F)cc1)C(=O)c1snc(C(N)=O)c1N (configuration not stated)	3%
CC1=C(C)CC2C(=O)N(Cc3ccccc3)C(=O)C2C1 (configuration not stated)	-23%
O=C(NCc1ccccn1)C(=O)NN=C1CCCCCCC1	-2%
Cc1ccc2c(c1)N(Cc1ccc([N+](=O)[O-])cc1)C=NS2(=O)=O	0%
CN1C(=O)[C@@H]2[C@@H]3C[C@@H]([C@H]4ON=C(c5ccc(Cl)cc5Cl)[C@@H]34)[C@@H]2C1=O	-6%
CCOC(=O)c1cnn(-c2ccc(C(=O)Nc3cc(OC)c(OC)c(OC)c3)cc2)c1N	5%
CCc1cc2c(=O)c(-c3nc4ccccc4n3C)c(C)oc2c(CN(CC)CC)c1O	0%
CC(=O)c1cccc(S(=O)(=O)N2CCCC(c3nc4c(nnn4Cc4cccc(Cl)c4)c(=O)[nH]3)C2)c1 (configuration not stated)	-16%
CC(C(=O)NC1CCCCCC1)c1ccc([N+](=O)[O-])cc1 (configuration not stated)	-7%
Cn1c(CNc2ccc(F)cc2)nnc1SCC(=O)NNC(=O)Cc1ccccc1	-8%
COC(=O)Nc1ccc2c(c1)N(C(=O)CCN1CCN3CCCC3C1)c1ccccc1CC2 (configuration not stated)	17%&4%
COc1ccc(Cc2nnc(NCCO)[nH]c2=O)cc1	-3%
Cc1nn(C(=O)c2ccc(Cl)cc2)c(C)c1Sc1ccc(Cl)cc1	-26%
CC1CCCCN1CCNC(=O)C1CCN(S(=O)(=O)c2cccc3cccnc23)CC1 (configuration not stated)	1%
COc1cccc(CNC(=O)C2CSC3(C)CCC(=O)N23)c1 (configuration not stated)	-6%
COC(=O)c1ccc(Oc2ccc(S(=O)(=O)N3CCCCC3)cc2N)cc1	-12%
C=C(C(C)=O)C(O)c1cccs1 (configuration not stated)	-8%
Nc1nc(SCC(=O)O)c2[nH]cnc2n1	-7%
COc1cc(/C=C(\C#N)C(=O)Nc2cccnc2)ccc1OC(C)C	?
CCc1ccccc1N(CC(=O)NC1CCCCC1)C(=O)CCCC(=O)Nc1ccccn1	-15%
Cc1ccc(C(=O)NC(=S)/C=C2\N(C)c3ccccc3C2(C)C)cc1	6%
O=C(NCCc1ccccc1F)C1CC(=O)N(c2cccc(C(F)(F)F)c2)C1 (configuration not stated)	-8%

Next records:
SMILES	VDR inhibitor
O=C(CN1CCOCC1)Nc1ccccc1Sc1ccccc1	-1%
CC(=O)c1cccc(NC(=O)CN2C(=O)c3cccnc3Sc3ccccc32)c1	19%
O=C(N/N=C/c1cccs1)C1CC(=O)N(c2ccccc2)C1 (configuration not stated)	7%
Cc1ccc(N2C(=O)CCC(C(=O)O)C2c2cccs2)cc1 (configuration not stated)	2%
CCN(CC)CCCNc1ccc2ncn3c4ccc(O)cc4c(=O)c1c23	?
COc1cc(C)c(S(=O)(=O)N2CCCC2)cc1C(C)C	-9%
CC(C)(C)c1ccc(S(=O)(=O)N2CCN(CC(O)CN3CCOCC3)CC2)cc1 (configuration not stated)	-4%
O=c1[nH]nc(SCCS(=O)(=O)c2ccc(F)cc2)n1-c1ccc2c(c1)OCCO2	11%
Cn1c(=O)oc2cc(S(=O)(=O)N3CCc4ccccc4C3)ccc21	-2%
CCCCC1=CC2=C(c3ccco3)C(=O)C(C)(OC(=O)c3ccc(OC)cc3)C(=O)C2=CN1CCCN(CC)CC (configuration not stated)	-8%
C=CCC(CC)C(=O)NC(=O)N1CCCc2ccccc21 (configuration not stated)	-24%
COc1ccc(CNC(=O)C/C(C)=N/NC(=O)C23CC4CC(CC(C4)C2)C3)cc1	1%
COC(=O)c1c(NC(=O)c2ccc(C)c(S(=O)(=O)Nc3ccccc3C)c2)sc2c1CCCC2	-13%
CC(C)Cc1ccc(CN2CCCC(NC(=O)c3cnc4ccccn4c3=O)C2)cc1 (configuration not stated)	-11%
CCN(CC)CCNC(=O)c1ccc(NC(=O)Cc2ccsc2)cc1	-4%
COc1ccc(C2c3c(ncn(Cc4ccco4)c3=N)Oc3ccc4ccccc4c32)cc1 (configuration not stated)	-7%
O=C(CN1CCCCC1)Nc1ccccc1Oc1ccccc1	-2%
Cc1ccc(-c2nnc(Nc3ccc(OCC(N)=O)cc3)c3ccccc23)cc1S(=O)(=O)NCC1CCCO1 (configuration not stated)	-14%
O=C(c1cn(-c2ccccc2)nc1-c1cccs1)N1CCN(c2ccc(F)cc2)CC1	19%
COc1ccc(-c2cc(C(=O)NCCc3ccccc3)c3c(-c4ccc(Cl)cc4)[nH]nc3n2)cc1	5%
Cc1nc(-c2ccc(S(=O)(=O)N3CCN(c4cccc(C(F)(F)F)c4)CC3)cc2)co1	8%
COC(=O)c1ccc(N2CCN(C)CC2)c(NC(=O)COc2ccc(C)cc2)c1	-2%
Cc1ccccc1NC(=O)NCCCN1CCN(c2ccccc2)CC1	12%
O=C(CCNC(=O)C1CCN(S(=O)(=O)c2ccc(F)cc2)CC1)NCc1ccccc1	-12%
COc1ccc(C2C(C(C)=O)=C(O)C(=O)N2CCCn2ccnc2)cc1OC (configuration not stated)	5%

Of the compounds above, 15 have a Cl atom.
SMILES	VDR inhibitor
O=S(=O)(CCN1CCN(c2ccccn2)CC1)c1ccc(Cl)cc1Cl	-8%
CS(=O)(=O)N(CC(=O)N1CCCCC1)c1ccc(Cl)c(C(F)(F)F)c1	-10%
O=C(c1ccc(-c2ccc(Cl)cc2)o1)N1CCN(S(=O)(=O)c2cccs2)CC1	-26%
CCOC(=O)C1NN=C(C(=O)c2ccccc2)C1c1ccc(Cl)cc1 (configuration not stated)	-24%
Clc1nssc1=Nc1ccccc1	45µM*
CSCCC(NC(=O)c1ccccc1)C(=O)N1CCN(Cc2ccc(Cl)cc2)CC1 (configuration not stated)	2%
Cc1ccc(-c2ccccc2NC(=O)CS(=O)CC(=O)Nc2ccc(C)c(Cl)c2)o1 (configuration not stated)	45µM*
O=C(Nc1cccc(Cl)c1Cl)c1ccccc1OCC(=O)N1CCOCC1	0%
COc1ccc(NC(=O)COC(=O)CCc2nc3ccccc3c(=O)[nH]2)cc1Cl	6%
O=C(COc1ccc(Cl)cc1Cl)NN=C1CCCCC1	-22%
O=C(/C=C/c1ccccc1)NC(NC(=S)Nc1ccc(C(=O)O)cc1)C(Cl)(Cl)Cl (configuration not stated)	?
CN1C(=O)[C@@H]2[C@@H]3C[C@@H]([C@H]4ON=C(c5ccc(Cl)cc5Cl)[C@@H]34)[C@@H]2C1=O	-6%
CC(=O)c1cccc(S(=O)(=O)N2CCCC(c3nc4c(nnn4Cc4cccc(Cl)c4)c(=O)[nH]3)C2)c1 (configuration not stated)	-16%
Cc1nn(C(=O)c2ccc(Cl)cc2)c(C)c1Sc1ccc(Cl)cc1	-26%
COc1ccc(-c2cc(C(=O)NCCc3ccccc3)c3c(-c4ccc(Cl)cc4)[nH]nc3n2)cc1	5%

Continued:
SMILES	VDR inhibitor
O=C(c1ccc2nc(Cc3ccccc3F)oc2c1)N1CC[C@H](O)C1	?
O=C(O)CSc1nnc(CNc2ccc(Cl)cc2)n1Cc1ccccc1	?
O=C(NCCc1c[nH]c2ccccc12)C(=O)NCC1OCCN1S(=O)(=O)c1ccccc1 (configuration not stated)	12%
COc1ccc(C2CC3(CC(C)(C)NC(=S)N3)Oc3cc(O)cc(C)c32)cc1OC (configuration not stated)	-13%
O=C(Nc1ccn(Cc2ccccc2)n1)c1n[nH]c([N+](=O)[O-])c1Cl	-2%
CN(C)C(=O)N1CCC(C(=O)NC2CCCCCCC2)CC1	8%
CCCCSc1nc2c(cnn2-c2ccc(C)c(C)c2)c(=O)[nH]1	-11%
O=C1NC(=O)N(c2ccccc2)C1=O	7%
O=C(CCC1CCCC1)NCc1cccs1	-5%
Cc1cc(C)cc(OCC(=O)Nc2ccc(Cl)c(-c3nc4ncccc4o3)c2)c1	3%
CC(=O)c1cc2c(cc1NC(=O)CCn1cnnn1)OCO2	9%
O=C(/C=C/c1cn(-c2ccccc2)nc1-c1ccc2c(c1)OCCO2)NCCO	10%
Cc1csc(NC(=O)c2cc3c(s2)CCC3)n1	4%
Cc1cc(N2CCN(C(=O)c3ccco3)CC2)n2ncnc2n1	14%
Cc1ccccc1OCC(=O)Nc1ccc(S(=O)(=O)Nc2ccccn2)cc1	-30%
Cc1cc(C)c(NC(=O)c2c(C)oc3c2C2=NCCN2C=N3)c(C)c1	6%
Cc1cc(C)n2nc(SCc3nnc(SCc4ccccc4Cl)s3)nc2n1	6%
CS(=O)(=O)N(CC(=O)N1CCN(Cc2ccc3c(c2)OCO3)CC1)Cc1ccc(Cl)cc1	3%
COc1ccc(-c2c(N)n[nH]c2C)cc1OC	-12%
CCC(=O)Nc1ccc(N2CCN(C(=O)c3ccco3)CC2)c(Cl)c1	-16%
Cc1nonc1NC(=O)OC1CCCCC1	8%
CCN(CC)CCNC(=O)c1c2c(nc3ccccc13)C(=O)N(C1CCCCC1)C2	6%
O=C(CC1OC(=O)c2ccccc21)c1ccco1 (configuration not stated)	-2%
O=C(Nc1nnc(C2CCCCC2)s1)c1ccco1	12%
OCCNc1cnc2ccccc2n1	?

Later entries
SMILES	VDR inhibitor
O=c1cnnc(N/N=C/c2c[nH]c3ccccc23)[nH]1	19%
Cc1ccc(Nc2cc(=O)n(C3CCCCC3)c(=O)[nH]2)cc1C	19%
O=C1C2CCCCC2C(=O)N1c1nccs1 (configuration not stated)	-6%
CCNC(=S)N/N=C/c1cccs1	-22%
O=C(COC(=O)c1ccc(F)c(S(=O)(=O)N2CCOCC2)c1)NC1CCCCC1	1%
COc1ccc(CC(=O)N/N=C\c2cc(Br)c(O)c(Br)c2)cc1	0%
O=C(c1ccco1)N1CCN(C(=O)c2ccc(-c3ccc([N+](=O)[O-])cc3)o2)CC1	-27%
COc1cc2nc(C3CCC3)n(NC(=O)COc3ccccc3)c(=O)c2cc1OC	?
Cc1ccc2cccc(NC(=O)c3ccc(OC(C)C)cc3)c2n1	18%
Fc1ccc(-n2ncc3c(Nc4ccc(Oc5ccccc5)cc4)ncnc32)cc1	0%
COC(=O)c1ccc(NC(=O)C2CCN(C(=O)c3ccc(F)cc3)CC2)cc1	-1%
COc1ccc(-c2coc3cc(O)ccc3c2=O)cc1	-7%
COc1ccc(OC)c(C2=NOC(C(=O)Nc3c(C)n(C)n(-c4ccccc4)c3=O)C2)c1 (configuration not stated)	-18%
COc1ccc(-n2c(CNC(=O)c3cc(OC)c(OC)c(OC)c3)n[nH]c2=S)cc1	13%
COC(=O)C(C)Oc1cc(C)ccc1COc1ccc(-n2nc(C)n(C(F)F)c2=O)cc1 (configuration not stated)	4%
O=S(=O)(NCCc1csc2nc(-c3ccc(Cl)cc3)nn12)c1ccc(Oc2ccccc2)cc1	7%
O=c1oc2cc(O)ccc2c2c1CCCC2	10%
O=S(=O)(NCCc1ccccc1)c1cccc2nsnc12	7%
CC1(C)CC(=O)C=C(NNC(=O)c2ccccc2O)C1	0%
Cc1ccc(CNC(=O)Cc2c(C)c3cc4c(C)coc4cc3oc2=O)cc1	-9%
COc1ccc(Br)cc1S(=O)(=O)NNC(=O)c1c(C)nc2ccccn12	16%
